Screens (PubChem BioAssay)
RanGTP-Impb inh – inhibitors of RanGTP-importin-beta interaction, primary screen, biochemical, FRET, CFP-Ran, YFP-importin-beta, homogeneous; Ran GTPase (GTP-bound) - importin-beta complex; cell-free CFP-Ran/YFP-importin-beta FRET ratio; inhibition, % (concentration not given with the values); actives 1.1% (n = 300,000); AID 2216, 2009;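 active means most replicates above 15%; inconclusive means exactly half above 15%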;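 further: 0% = DMSO wells and 100% = Ran loaded with GDP instead of GTP; wells of about 40 µL received 100 nL stock; the first replicate is given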
MLL AF4-AF9 inh – inhibitors of AF4 peptide binding to AF9, primary screen, biochemical, AlphaScreen, biotin-AF4 peptide, FLAG-AF9, single point; Protein AF-9 (Homo sapiens), P42568; inhibition, % at 10 µM; actives 0.47% (n = 350,000); AID 651704, 2012;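 active means every replicate reaching a set inhibition limit, whatever the replicate mean, cut at about 25% in these data; inconclusive means mean inhibition reaches that limit but some replicates miss it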;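 further: 0% = plate neutral control median and 100% = total signal loss; the record names both 10 and 1 µM as test concentration; the first replicate is given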
Target sequence (P42568 whole entry, looked up): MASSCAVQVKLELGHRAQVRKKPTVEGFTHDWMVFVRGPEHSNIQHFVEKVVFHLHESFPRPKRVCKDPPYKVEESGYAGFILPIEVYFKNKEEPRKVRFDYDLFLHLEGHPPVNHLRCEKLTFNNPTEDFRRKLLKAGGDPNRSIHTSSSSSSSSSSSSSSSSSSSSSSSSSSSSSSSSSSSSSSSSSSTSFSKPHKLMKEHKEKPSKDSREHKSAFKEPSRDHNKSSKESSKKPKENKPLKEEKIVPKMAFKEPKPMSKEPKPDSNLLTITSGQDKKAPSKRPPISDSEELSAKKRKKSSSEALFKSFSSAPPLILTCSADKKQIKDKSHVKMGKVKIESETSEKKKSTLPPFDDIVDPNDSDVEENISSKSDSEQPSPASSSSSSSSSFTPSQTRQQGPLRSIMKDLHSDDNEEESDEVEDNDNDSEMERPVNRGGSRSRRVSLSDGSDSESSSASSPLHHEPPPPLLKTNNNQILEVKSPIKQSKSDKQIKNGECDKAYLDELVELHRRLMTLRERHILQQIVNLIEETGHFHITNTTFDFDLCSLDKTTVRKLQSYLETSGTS
HNF4A DNA FP – change in binding of human HNF4A to DNA, primary screen, biochemical, fluorescence polarization, FITC-DNA. actives 0.3% (n = 360,000). 1 h. Hepatocyte nuclear factor 4-alpha (Homo sapiens), P41235. activity change, % at 10 µM; in the data active means activity change above about 30%, passing the limit was not always enough;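 further: controls were the assay level and a saturating level of protein; the project sought stronger binding though the title names inhibitors; some compounds called inactive have numbers as strong as hits; positive values seem to mean higher polarization but the record does not say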
Target sequence (P41235 whole entry, looked up): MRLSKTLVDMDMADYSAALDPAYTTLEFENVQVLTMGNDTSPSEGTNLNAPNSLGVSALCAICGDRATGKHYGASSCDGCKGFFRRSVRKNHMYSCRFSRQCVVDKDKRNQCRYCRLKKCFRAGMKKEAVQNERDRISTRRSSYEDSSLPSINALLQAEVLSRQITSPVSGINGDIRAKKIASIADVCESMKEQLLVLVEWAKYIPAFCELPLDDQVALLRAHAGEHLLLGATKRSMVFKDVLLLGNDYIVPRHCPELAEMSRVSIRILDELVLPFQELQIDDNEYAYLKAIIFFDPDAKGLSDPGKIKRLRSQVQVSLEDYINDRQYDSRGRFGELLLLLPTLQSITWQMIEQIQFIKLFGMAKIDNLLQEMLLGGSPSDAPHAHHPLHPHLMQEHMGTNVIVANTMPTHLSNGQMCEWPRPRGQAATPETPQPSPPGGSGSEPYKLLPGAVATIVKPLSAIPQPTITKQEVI
UCH37 inh – inhibitors of human UCH37 deubiquitinase, primary screen, biochemical, Ub-AMC cleavage, fluorescence | Ubiquitin carboxyl-terminal hydrolase isozyme L5 (Homo sapiens), Q9Y5K5 | purified proteasome/UCH37 | inhibition, % (test concentration not listed) | actives 0.33% (n = 330,000) | AID 588478, 2011;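 active means mean of two replicates above 20%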;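 further: 0% = compound-free wells with enzyme and 100% = wells lacking proteasome; stock transfer was 100 nL into about 20 µL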
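Signal – fluorescence, ex 355 nm, em 460 nm · System – Proteasome-bound UCH37 · Input – 0.15 nM proteasome as dispensed · Timing – 30 min preincubation with enzyme, 25 min cleavage at room temperature · Read-out basis – percent inhibition of cleavage signal versus uninhibited and no-proteasome wells · Medium – Tris-HCl pH 7.4 with ATP-MgCl2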
Vif A3G – inhibitors of Vif binding to APOBEC3G peptide, primary screen, biochemical, TR-FRET, GST-Vif 1-94, biotin-A3G peptide, dose response retest (AID 1117319); Virion infectivity factor (Human immunodeficiency virus type 1 group M subtype B (isolate …; TR-FRET GST-Vif / biotin-A3G peptide binding; higher % means a stronger effect; test concentration not given here; strong numbers were not always called active; inhibition, %; hits with a dose series show IC50 in µM; actives 0.57% (n = 260,000);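 active means above the screen mean plus three standard deviations and confirmed in dose response; inconclusive means results disagree or hit not tested in dose response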;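 further: Vif residues 1-94 fused to GST binding biotinylated APOBEC3G peptide 110-148; 0% = full assay without inhibitor and 100% = GST in place of GST-Vif; retest series ran down from 100 µM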
FGF22 binding – binders of human FGF22 protein, primary screen, FGF22 synaptogenesis inhibitor project, biophysical, thermal shift, single point | recombinant FGF22 thermal shift, SYPRO orange fluorescence; percent of sucrose octasulfate shift, DMSO zero | actives 1.5% (n = 340,000) | calls only at 9.99 µM;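 active means melting point raised past a set limit in the mean and every replicate; inconclusive means no clear call; three in four hits are not shown here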
E coli growth – E. coli growth inhibition, primary screen, OD600 | actives 0.21% (n = 330,000) | Escherichia coli growth, 23 h; active compounds read low | AID 1053175, 2014 | OD600 absorbance (concentration not given with the values);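 active means OD600 absorbance below the run mean of sample wells minus 3.6 SD, in any replicate, cut at about 0.56 in these data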;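 further: stock transfer was 300 nL into about 60 µL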
* marks the source's active call; other numbers are inactive results; i = inactive; u = inconclusive; x = no result given.

SMILES	RanGTP-Impb inh	MLL AF4-AF9 inh	HNF4A DNA FP	UCH37 inh	Vif A3G	FGF22 binding	E coli growth
CC(=C/C(=O)O)/C(=C\c1ccc(Br)o1)C(=O)O	3.1	u	-1.3	4.6	16%	i	0.68
COc1ccccc1C(=O)Nc1c(C(=O)N2CCN(C)CC2)oc2ccccc12	1.5	2.6	-1.6	8.2	x	i	0.69
O=C(CCc1nnc(CCc2ccccc2)o1)NC(c1cccnc1)C(F)(F)F (stereo unspecified)	-5.4	-1.1	1.8	4.4	14%	i	0.66
C=CCNC(=S)N/N=C/c1ccc(-c2cccc([N+](=O)[O-])c2)o1	4.8	-0.1	3.5	x	-4%	i	x
O=C(CN1CCCCC1)Nc1cccc(Br)c1	3.5	x	0.9	-7.3	-5%	x	0.71
CSc1ccc(CNc2ccc(C)c(C)c2)cc1	-0.5	7.3	-2.1	0.3	6%	i	0.66
COc1ccccc1CCNC(=O)C(=O)NCC1OCCCN1S(=O)(=O)c1ccc(F)cc1C (stereo unspecified)	-4.9	-2.7	2.7	x	x	i	x
CCc1ccc(NC(=O)c2noc3c2CCC3)cc1	2.3	x	-9.7	-0.3	26%	x	0.75
O=C(Nc1nc(-c2ccccc2)cs1)C1c2ccccc2Oc2ccccc21	0.8	x	-2.9	-0.3	19%	x	0.7
CCNC(=S)NC1CC2CCC(C1)N2Cc1ccccc1 (stereo unspecified)	1.5	x	-1.3	2.8	-3%	x	0.64
CC(=O)c1ccc(N2CCN(S(=O)(=O)c3c(C)[nH]c(C)c3C(=O)N3CCCCC3)CC2)cc1	3.3	-1.6	-1.0	3.1	-4%	i	0.68
O=C(O)c1ccc(CNS(=O)(=O)c2ccc(Oc3ccccc3Cl)cc2)cc1	-1.6	u	0.9	1.0	x	i	0.67
O=C(CCC(=O)N(CC(=O)NC1CCCC1)C1CCCC1)Nc1ccccn1	0.6	x	5.1	-0.8	-6%	x	0.74
O=C(Cc1ccc(Cl)cc1)Nc1cccnc1Cl	x	-1.3	1.7	x	-2%	i	x
O=C(COc1ccccc1Cl)NCc1ccco1	x	x	0.3	1.6	2%	x	0.63
O=C1C2C3c4ccccc4C(c4ccccc43)[C@@H]2C(=O)N1c1cccnc1 (stereo partly specified)	8.0	-0.3	0.3	-0.2	-2%	i	0.7
CCN(CC)CCN(Cc1cc2cc(C)cc(C)c2[nH]c1=O)C(=S)NCc1ccco1	1.7	-17	4.8	-6.9	-3%	i	0.68
COC(=O)c1c(NC(=O)CC2NCCNC2=O)sc2c1CCCC2 (stereo unspecified)	-4.2	x	2.2	-2.8	68%	x	0.73
NC(=O)c1nsc(C(=O)N(Cc2ccco2)C(C(=O)NCC2CCCO2)c2ccc(O)cc2)c1N (stereo unspecified)	1.6	0.3	0.1	-50	x	x	0.68
Cc1cc(C)cc(NC(=S)NC(=O)C2CC2)c1	u	-1.4	2.0	2.5	-13%	i	0.72
C/C(=N/NS(=O)(=O)c1cc(C)ccc1C)c1c[nH]c2ccccc12	2.8	-1.1	-1.2	x	x	i	x
CN1CCN(S(=O)(=O)c2cccc(C(=O)N(Cc3nnc(-c4ccccc4Cl)o3)C3CC3)c2)CC1	0.3	9.7	2.3	0.8	-3%	i	0.71
O=C(OCC(=O)N1CCC(Cc2ccccc2)CC1)c1ccc(CO)cc1	x	-0.2	3.6	-1.5	0%	i	0.66
COc1ccc(OC)c(NC(=O)CCCSc2ccccc2)c1	-8.8	3.3	1.1	1.2	x	i	0.65
CCCN(CCC)S(=O)(=O)c1ccc(C(=O)NNc2nc(-c3ccccc3)c3cc(Br)ccc3n2)cc1	-2.9	-3.1	-2.7	x	11%	i	x

New compounds follow:
SMILES	RanGTP-Impb inh	MLL AF4-AF9 inh	HNF4A DNA FP	UCH37 inh	Vif A3G	FGF22 binding	E coli growth
COc1cc([N+](=O)[O-])ccc1NC(=O)Nn1cnnc1	-2.7	0.3	0.4	6.9	x	i	0.66
CN(CC(=O)NC1CCCC1)S(=O)(=O)c1cccc(Cl)c1	x	-1.6	-2.8	3.1	-3%	i	0.67
C[C@@H](NC(=O)[C@@H]1CCCN1C(=O)OC(C)(C)C)c1ccccc1	x	-3.5	0.5	x	x	i	x
Cc1ccc(C(=O)N/C(=C/C=C\c2ccccc2)C(=O)NCc2ccco2)cc1	0.0	10	1.3	-0.4	-16%	i	x
CC(C)CCn1nnnc1CN1CCN(c2ccc(F)cc2)CC1	2.6	2.4	0.6	3.4	6%	i	0.69
O=C(Nc1ccccn1)C1CCN(S(=O)(=O)c2ccc3ccccc3c2)CC1	x	-2.4	1.8	2.1	6%	i	0.62
O=C(N/N=C/C=C/c1ccco1)c1cccs1	0.8	-9.2	3.6	x	7.2µM*	i	x
O=C(CCC(=O)N(c1ccc(F)cc1)C(C(=O)NC1CCCC1)c1ccncc1)Nc1cccnc1 (stereo unspecified)	3.0	x	0.5	0.3	3%	x	0.7
O=C(COC(=O)c1ccccc1Nc1ccc(SC(F)F)cc1)NC1CC1	0.0	-3.2	-0.1	-5.0	-3%	i	0.7
CC1(C)CNC(=O)c2sc(NC(=O)c3ccccc3Cl)nc2C1	u	-2.1	0.1	1.4	2%	i	0.7
Cc1ccc(S(=O)(=O)N2CCCCC2)cc1NC(=O)CCNC(=O)c1ccccc1	x	-9.3	0.0	3.4	x	i	0.71
Cc1ccc(S(=O)(=O)N2CCN(C(=O)CN3CCOCC3)C2c2ccccc2)cc1 (stereo unspecified)	1.5	x	-3.9	2.1	-8%	x	0.72
Cc1ccc2nc(CSc3nnc(-c4ccco4)o3)cc(=O)n2c1	-2.9	x	-6.1	-2.6	u	x	0.73
COC(=O)CN(c1ccc(OC)cc1)S(=O)(=O)c1c(C)noc1C	2.4	x	-2.8	0.8	12%	x	0.77
CCOC(=O)c1ccc(/C=N/O)[n+](Cc2ccccc2)c1	-3.3	0.6	2.2	x	-8%	i	x
COc1ccc(N(CC(=O)N2CCN(c3ccccc3)CC2)S(=O)(=O)c2ccc(C)cc2)cc1	-1.8	0.1	2.6	-2.1	-2%	i	0.73
Cc1onc(-c2ccccc2)c1C(=O)Nc1nc2c(s1)C(=O)CC(C)(C)C2	-4.7	x	11	-0.4	-2%	x	0.68
CCCN(CC(=O)Nc1ccccc1C)C(=O)c1ccc(C(=O)c2ccccc2)cc1	3.9	-0.6	1.3	-1.0	-10%	i	0.63
c1ccc(C2CCC(N3CCNCC3)CC2)cc1 (stereo unspecified)	0.5	0.5	0.1	4.9	x	i	0.66
Cc1cccc(NC(=O)C2CCN(S(=O)(=O)c3ccc4c(c3)NC(=O)CO4)CC2)c1	5.1	-4.8	-1.9	3.4	1%	i	0.71
CC(=O)Nc1cccc(C(=O)OCC(=O)Nc2c(C)nn(-c3ccccc3)c2C)c1	-1.9	1.9	-1.4	-1.9	-8%	i	0.63
COc1ccccc1N1CCN(C(c2ccc(N(C)C)cc2)c2nnnn2CCc2ccccc2)CC1 (stereo unspecified)	-20	x	-0.6	5.7	x	x	0.72
Cc1cc(CNC[C@H]2O[C@@H](n3ccc(N)nc3=O)[C@H](O)[C@@H]2O)no1	x	1.9	0.3	x	3%	i	x
O=C(NCc1cc2ccccc2[nH]1)C1CCC(=O)N(CC2CCCCC2)C1 (stereo unspecified)	x	4.5	12	x	5%	i	x
Cc1ccc(C(=O)NCC(=O)OCC(=O)NC2CCS(=O)(=O)C2)cc1C (stereo unspecified)	x	-4.1	-1.2	-1.1	-2%	i	0.65

Carrying on:
SMILES	RanGTP-Impb inh	MLL AF4-AF9 inh	HNF4A DNA FP	UCH37 inh	Vif A3G	FGF22 binding	E coli growth
CC1(c2ccccc2)CCC(=O)NC1 (stereo unspecified)	x	-1.8	4.4	-0.7	-6%	i	0.71
CCOc1ccc(CN(C)C(=O)CNC(=O)c2ccccc2)cc1	-3.6	-1.5	1.6	1.7	x	i	0.55
COc1cc(-c2cc3nc(NC4CCCCC4)ccn3n2)cc(OC)c1OC	x	0.7	-2.4	x	x	i	x
O=C(NCC1CCCO1)c1ccc(Cl)c(S(=O)(=O)N2CCCCC2)c1 (stereo unspecified)	-1.4	-4.6	1.5	3.1	0%	i	0.69
O=S(=O)(Nc1ccc(O)c(Sc2nc3ccccc3s2)c1)c1cccc2ccccc12	0.8	x	3.1	1.5	x	x	0.69
CCOC(=O)c1nc(NNC(C)=O)sc1C	4.4	-1.2	0.0	4.8	-5%	i	0.7
CC(=O)OCC(=O)[C@@]1(O)CC[C@H]2[C@@H]3CCC4=CC(=O)C=C[C@]4(C)[C@@]3(Cl)[C@@H](Cl)C[C@@]21C	-5.3	-4.4	2.2	0.5	16%	i	x
CCCC1(c2ccccc2)NC(=O)N(CC(=O)Nc2ccccc2C(F)(F)F)C1=O (stereo unspecified)	4.7	-0.5	4.3	0.4	x	i	0.71
CCN(Cc1ccncc1)C(=O)c1ccco1	x	-1.4	-2.1	2.9	1%	i	0.69
CN(C(=O)CN1C(=O)c2ccc([N+](=O)[O-])cc2C1=O)C1CCCCC1	x	-3.0	0.0	1.6	-5%	i	0.68
N#C/C(=C/Nc1ccccc1C(=O)O)C(N)=O	-0.9	-12	-5.5	14	-1%	i	0.66
CC(C)Nc1nc(NCCN2CCCC2)c2sc(-c3ccccc3)cc2n1	x	18	1.3	x	x	i	x
CCC(C)C(N)C(=O)NC(CCC(=O)OCc1ccccc1)C(N)=O (stereo unspecified)	-1.0	x	-2.7	-2.2	0%	x	0.72
O=C(NCc1ccccn1)C1CCN(C(=O)c2cc3sccc3n2Cc2ccc(F)cc2)CC1	3.0	0.7	3.0	-1.5	33%	i	0.69
CC(C(=O)Nc1cccnc1)c1ccc([N+](=O)[O-])cc1 (stereo unspecified)	-2.0	-0.1	3.6	3.5	2%	i	0.66
Cc1ccc(NC(=O)C(OC(=O)c2ccc(NC(N)=O)cc2)c2ccccc2)cc1Cl (stereo unspecified)	7.6	7.2	3.0	3.9	x	i	0.7
CC(=O)NC(C)(c1ccccc1)c1nc(-c2cccc3cccnc23)cs1 (stereo unspecified)	x	-0.5	-0.3	x	x	i	x
Cc1cccc(C(=O)NC(=S)Nc2ccc3[nH]c(=O)[nH]c3c2)c1	x	-2.2	-0.5	3.4	4%	i	0.73
CCn1ncc(C(=O)Nc2ccc([N+](=O)[O-])cc2OC)c1C	0.7	-0.9	1.2	11	x	i	0.65
CC(=O)Nc1cnc(NC(=O)c2cccc(F)c2)cc1C	4.4	x	-0.1	2.6	16%	x	0.69
CNC(=O)CSc1nnnn1-c1cc(C)ccc1C	-1.0	x	0.4	0.1	-9%	x	0.74

At a glance, part of the list above:
SMILES	RanGTP-Impb inh	MLL AF4-AF9 inh	HNF4A DNA FP	UCH37 inh	Vif A3G	FGF22 binding	E coli growth
CCOC(=O)c1nc(NNC(C)=O)sc1C	4.4	-1.2	0.0	4.8	-5%	i	0.7
CC(=O)OCC(=O)[C@@]1(O)CC[C@H]2[C@@H]3CCC4=CC(=O)C=C[C@]4(C)[C@@]3(Cl)[C@@H](Cl)C[C@@]21C	-5.3	-4.4	2.2	0.5	16%	i	x
CCCC1(c2ccccc2)NC(=O)N(CC(=O)Nc2ccccc2C(F)(F)F)C1=O (stereo unspecified)	4.7	-0.5	4.3	0.4	x	i	0.71
CCN(Cc1ccncc1)C(=O)c1ccco1	x	-1.4	-2.1	2.9	1%	i	0.69
CN(C(=O)CN1C(=O)c2ccc([N+](=O)[O-])cc2C1=O)C1CCCCC1	x	-3.0	0.0	1.6	-5%	i	0.68

The list is partial (hit frequency here may not be typical).
